Source: PubChem BioAssay (several laboratories)
HNF4A DNA FP: change in binding of human HNF4A to DNA, primary screen, biochemical, fluorescence polarization, FITC-DNA | Hepatocyte nuclear factor 4-alpha (Homo sapiens), P41235 | actives 0.3% (n = 360,000) | AID 1224865, 2016 | activity change, % at 10 µM | 1 h; in the data active means activity change above about 30%, passing the limit was not always enough;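 further: controls were the assay level and a saturating level of protein; the project sought stronger binding though the title names inhibitors; some compounds called inactive have numbers as strong as hits; positive values seem to mean higher polarization but the record does not say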
Target sequence (P41235 whole entry, looked up): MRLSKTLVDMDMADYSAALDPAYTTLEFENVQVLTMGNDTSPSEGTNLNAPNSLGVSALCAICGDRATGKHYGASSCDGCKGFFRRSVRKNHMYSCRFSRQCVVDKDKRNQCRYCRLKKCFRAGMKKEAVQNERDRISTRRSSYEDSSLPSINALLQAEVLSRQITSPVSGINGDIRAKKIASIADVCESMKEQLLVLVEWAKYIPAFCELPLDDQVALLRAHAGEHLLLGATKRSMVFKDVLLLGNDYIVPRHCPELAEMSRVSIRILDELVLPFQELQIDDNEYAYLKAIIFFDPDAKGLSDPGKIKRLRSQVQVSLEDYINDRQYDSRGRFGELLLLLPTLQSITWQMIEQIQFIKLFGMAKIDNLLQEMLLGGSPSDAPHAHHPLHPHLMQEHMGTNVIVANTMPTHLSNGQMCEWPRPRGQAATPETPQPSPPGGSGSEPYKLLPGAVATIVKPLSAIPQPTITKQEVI
LANA-H2B inh: blockers of LANA interaction with H2A/H2B – biochemical, FP readout, HTS, primary screen. inhibition, % (no concentration beside the values). actives 0.6% (n = 320,000). cell-free LANA-H2A/H2B peptide, fluorescence polarization; in the data active means inhibition mostly above about 10%, no sharp cut-off; inactive means mostly below about 6.7%;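 further: stock transfer was 7.5 nL into about 10 µL; 0% = median of vehicle wells and 100% = median of positive control wells; one replicate is shown; the record names a cut of 25% in any replicate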
B2AR ag: beta2AR agonists driving receptor internalization, primary screen, cell-based, FAP fluorogen, flow cytometry. Am2.2-beta2AR cells; reference of the scale not given here. response, % (no concentration beside the values). actives 0.43% (n = 340,000);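 active means response above a set limit, near 3 SD of response in nonfluorescent compounds, cut at about 42% in these data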;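 further: stock transfer was 100 nL into about 11 µL; a reference agonist was the positive control; negative values mostly stem from fluorescent compounds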
Target sequence (P07550 whole entry, looked up): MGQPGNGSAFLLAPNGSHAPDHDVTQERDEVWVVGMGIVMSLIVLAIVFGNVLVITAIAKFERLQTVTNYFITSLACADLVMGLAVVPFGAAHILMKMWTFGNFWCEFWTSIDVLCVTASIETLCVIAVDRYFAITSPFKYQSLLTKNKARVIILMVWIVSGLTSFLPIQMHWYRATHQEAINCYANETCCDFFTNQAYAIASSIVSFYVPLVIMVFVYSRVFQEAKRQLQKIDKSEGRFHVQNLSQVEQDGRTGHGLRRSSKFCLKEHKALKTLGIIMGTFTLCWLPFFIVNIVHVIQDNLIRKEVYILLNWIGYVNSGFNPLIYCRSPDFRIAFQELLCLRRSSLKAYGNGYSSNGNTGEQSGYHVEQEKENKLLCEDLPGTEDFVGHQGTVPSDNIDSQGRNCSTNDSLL
A1 inh: caspase 3/7 activation in MEF A1-2A-BIM cells, primary screen, A1 inhibitor project, cell-based, luminescence, HTS; AID 2462, 2010; actives 0.066% (n = 330,000); caspase activation, % (no concentration beside the values); Caspase-Glo 3/7 luminescence, 3 h; percent of clofoctol response, vehicle zero;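 active means over half of replicate activation scores above 10%, or exactly half above 10 with the replicate mean above 10; inconclusive means replicate mean below 10 yet half the replicates above 10; inactive means over half of replicates below 10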;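 further: wells of about 30 µL received 50 nL stock; many hits fall short of the cut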
E coli growth: E. coli growth inhibition, primary screen, OD600. actives 0.21% (n = 330,000). OD600 absorbance (concentration not given with the values). Escherichia coli growth, 23 h; stronger effect = lower value;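 active means OD600 absorbance below the run mean of sample wells minus 3.6 SD, in any replicate, cut at about 0.56 in these data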;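 further: stock transfer was 300 nL into about 60 µL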
Vif A3G: inhibitors of Vif binding to APOBEC3G peptide, primary screen, biochemical, TR-FRET, GST-Vif 1-94, biotin-A3G peptide, dose response retest (AID 1117319). actives 0.57% (n = 260,000). TR-FRET GST-Vif / biotin-A3G peptide binding; higher % means a stronger effect; test concentration not given here; strong numbers were not always called active. inhibition, %; hits with a dose series show IC50 in µM;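 active means above the screen mean plus three standard deviations and confirmed in dose response; inconclusive means results disagree or hit not tested in dose response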;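 further: Vif residues 1-94 fused to GST binding biotinylated APOBEC3G peptide 110-148; 0% = full assay without inhibitor and 100% = GST in place of GST-Vif; retest series ran down from 100 µM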
UCH37 DUB inh: inhibitors of human UCH37 deubiquitinase, primary screen, biochemical, Ub-AMC cleavage, fluorescence; Ubiquitin carboxyl-terminal hydrolase isozyme L5 (Homo sapiens), Q9Y5K5; actives 0.33% (n = 330,000); purified proteasome/UCH37; inhibition, % (test concentration not listed);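 active means mean of two replicates above 20%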;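 further: 0% = compound-free wells with enzyme and 100% = wells lacking proteasome; stock transfer was 100 nL into about 20 µL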
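Test system – human UCH37 enzyme supplied as purified proteasome complex · Incubation – 30 min preincubation with enzyme, 25 min cleavage at room temperature · Detection – AMC fluorescence from Ub-AMC cleavage, excitation 355 nm, emission 460 nm · Benchmarks – no-proteasome wells (full inhibition) and compound-free wells (no inhibition)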
Starred values were filed as active, the others as inactive; ? = inconclusive; · = no result given.

canonical_smiles	A1 inh	UCH37 DUB inh	B2AR ag	E coli growth	LANA-H2B inh	HNF4A DNA FP	Vif A3G
CC(C)(C)NC(=O)C1CCC(CNS(=O)(=O)c2cccc3nsnc23)CC1 (stereo unspecified)	0.0	4.3	-6.4	0.633	-2.7	1.8	1.6%
CCN(CCS(=O)(=O)c1ccc(Cl)cc1)Cc1nc2ccccc2c(=O)[nH]1	-0.4	5.0	12.0	0.737	4.6	-0.5	·
O=C(CSc1ncccn1)NCc1cccs1	0.1	1.3	-3.4	0.691	-1.8	4.7	6.0%
N#CCCN(CCC#N)C(=O)COc1ccc(Cl)cc1Cl	-0.3	3.1	-4.8	0.723	-2.9	1.1	29.8%
CCCC(=O)NC(c1cccs1)c1cc([N+](=O)[O-])c2cccnc2c1O (stereo unspecified)	0.0	12.5	3.0	0.659	-0.4	4.7	?
CCS(=O)(=O)N1CCCC(C(=O)NCC2CCCO2)C1 (stereo unspecified)	-0.2	31.4*	1.8	0.672	-0.9	2.9	11.9%
O=C(CSc1ccccc1)N[C@@H](Cc1ccccc1)C(=O)O	1.2	4.3	0.0	·	7.0	2.4	-10.4%
Cc1occc1C(=O)Nc1c(F)cc(F)cc1Br	0.3	0.9	-5.5	0.65	2.6	0.4	-3.4%
CCOc1ccc(N2CC(=O)SC2=S)cc1	-0.2	4.6	-0.6	0.669	-0.2	1.3	-0.2%
O=C(NC12CC3CC(CC(C3)C1)C2)c1ccccc1	-0.9	1.5	-5.5	0.652	2.5	-0.8	·
O=C(c1ccc(Cn2cc([N+](=O)[O-])cn2)o1)N1CCCCCC1	0.0	3.7	-4.0	0.718	-2.5	-2.1	-3.2%
O=C(/C=C/c1cccc(Cl)c1)NCCN1CCOCC1	0.1	3.0	7.4	0.665	3.3	1.8	2.1%
N/C(=N\OC(=O)c1cc(Cl)ccc1Cl)c1ccccn1	-5.5	1.1	-8.2	0.672	-3.4	1.9	-5.8%
O=c1oc2ccccc2c(NCCc2ccccc2)c1[N+](=O)[O-]	0.0	4.6	-2.6	0.675	3.2	0.9	·
CC(=O)Nc1ccc(S(=O)(=O)N2c3ccccc3NC(=O)CC2C)c(Cl)c1 (stereo unspecified)	0.6	-1.0	-0.2	0.723	5.3	3.2	-5.8%
C=CCN(C(=O)c1oc2c(Cl)cc(C)cc2c1C)C1CCS(=O)(=O)C1 (stereo unspecified)	-1.1	-0.3	5.5	0.695	3.9	0.5	-1.7%
CCOc1ccc(S(=O)(=O)N2CCOCC2)cc1[N+](=O)[O-]	-0.4	-0.6	-14.1	0.646	-1.1	0.7	0.4%
COc1ccc2cc1Oc1ccc(cc1)C[C@H]1c3c(cc(OC)c4c3Oc3c(ccc5c3[C@H](C2)N(C)CC5)O4)CCN1C	-1.1	·	32.1	·	0.6	76.4*	·
COC(=O)C1=C(O)/C(=C\c2cc(C)n(-c3ccccc3C)c2C)N=C1C	-1.0	7.4	-3.7	0.651	-1.1	3.1	?
c1ccc2n[nH]nc2c1	·	-1.3	4.8	0.685	·	1.1	3.1%
O=C(NNC(=O)c1ccc(-c2ccccc2)cc1)Nc1ccccc1	-0.1	6.4	1.2	0.627	4.0	-4.5	·
COc1cc(C(=O)Nc2ccc(S(=O)(=O)NC(C)(C)C)cc2)cc(OC)c1OC	·	3.3	6.2	0.674	·	3.0	-5.5%
CCOC(=O)c1ccc(NC(=O)Cn2nnc(-c3ccc(C)cc3)n2)cc1	0.3	1.3	91.8*	0.705	-1.5	-0.7	-2.4%
Cc1cccc(NC(=O)c2c([N+](=O)[O-])cnn2C)c1	1.5	7.0	5.5	0.693	1.2	-1.5	3.6%
CC1(C)CC(N2CCC(=O)NC2=S)CC(C)(C)N1	0.6	7.5	-4.3	0.736	0.5	-2.5	·
CC(=O)Nc1ccc(S(=O)(=O)Nc2nnc(C(C)(C)C)s2)cc1	-0.4	0.7	-6.5	0.673	-1.2	0.4	-2.3%
COc1ccc(S(=O)(=O)Nc2ccccc2C(=O)N2CCCC2)cc1OC	0.5	-0.9	2.0	0.741	-5.1	-1.4	4.9%
CC(C)C(NS(=O)(=O)c1ccc2c(c1)oc(=O)n2C)C(=O)N1CCN(Cc2ccccc2)CC1 (stereo unspecified)	·	2.6	-5.6	0.745	·	2.8	-1.7%
O=C(c1ccc2c(c1)OCO2)N1CCN(c2cccc(C(F)(F)F)c2)CC1	0.2	1.1	6.6	0.628	0.2	0.6	·
C[n+]1cc(C(=O)N2CCCCC2)ccc1/C=C/c1c[nH]c2ccccc12	0.9	23.5*	-146.1	0.66	-146.8	146.6	24.1%

Compounds from the list above that contain a furan ring, fused or not, in the order listed:
canonical_smiles	A1 inh	UCH37 DUB inh	B2AR ag	E coli growth	LANA-H2B inh	HNF4A DNA FP	Vif A3G
Cc1occc1C(=O)Nc1c(F)cc(F)cc1Br	0.3	0.9	-5.5	0.65	2.6	0.4	-3.4%
O=C(c1ccc(Cn2cc([N+](=O)[O-])cn2)o1)N1CCCCCC1	0.0	3.7	-4.0	0.718	-2.5	-2.1	-3.2%
C=CCN(C(=O)c1oc2c(Cl)cc(C)cc2c1C)C1CCS(=O)(=O)C1 (stereo unspecified)	-1.1	-0.3	5.5	0.695	3.9	0.5	-1.7%

Remaining list, next part:
canonical_smiles	A1 inh	UCH37 DUB inh	B2AR ag	E coli growth	LANA-H2B inh	HNF4A DNA FP	Vif A3G
Cc1cc(OCC(=O)N2CCN(c3ccccn3)CC2)cc(C)c1Br	0.1	2.9	-6.3	0.632	-5.7	1.0	·
CCC(C)C1C(C#N)=C(N)Oc2n[nH]c(C)c21 (stereo unspecified)	0.1	5.2	5.1	0.716	0.1	0.7	-4.6%
COc1cccc(CN2CCN(Cc3[nH]c4ccccc4c3C)CC2CCO)c1 (stereo unspecified)	0.4	-0.3	-1.1	0.661	3.8	0.1	-2.7%
CCOC(=O)c1cn(CC(=O)Nc2ccccc2C(=O)OCC)nn1	-0.3	3.9	15.3	0.644	1.2	-2.8	3.2%
COc1ccccc1NC(=O)CSc1ccc2nnc(CCNC(=O)c3ccccc3)n2n1	0.7	-0.8	-5.6	0.644	-3.8	-5.1	·
Cc1ccc(N2CC(C(=O)OCC(=O)c3c(N)n(CC(C)C)c(=O)n(C)c3=O)CC2=O)cc1 (stereo unspecified)	-0.7	1.5	4.6	0.677	-0.3	1.6	-1.1%
CC1CCN(CCOc2cc(Cl)ccc2Cl)CC1	-0.2	1.2	2.7	0.674	0.8	-8.1	1.8%
CCOC(=O)C1C(=O)N(O)CC1c1cccc(Oc2ccccc2)c1 (stereo unspecified)	0.5	-0.9	3.4	0.673	-1.9	1.4	-15.2%
CN1CCN(c2ccc(Cl)cc2NC(=O)CCN2C(=O)c3ccccc3C2=O)CC1	0.6	5.5	1.9	0.689	2.3	4.0	17.8%
COc1ccc(OC)c(S(=O)(=O)N2CCCCCC2)c1	-1.3	2.6	5.2	0.712	-2.6	0.8	30.5%
COc1ccc(C)cc1NC(=O)CSc1nc(=O)n(CCCN2CCOCC2)c2c1CCCC2	1.5	1.5	-3.8	0.702	3.4	-3.0	5.5%
O=C(COC(=O)c1cc(=O)[nH]c2ccccc12)Nc1nc(-c2ccccc2)cs1	-3.3	1.8	9.3	0.674	2.5	3.2	7.2%
Cc1cc(C)cc(N2CC(C(=O)O)CC2=O)c1 (stereo unspecified)	0.5	6.0	11.3	0.751	-5.3	4.8	?
CC(=O)NC(=S)Nc1ccccc1N1CCCCC1	-1.0	4.2	-17.9	0.702	3.7	4.3	·
CN(C)C(=O)CCc1ccc2c3c([nH]c2c1)[C@]1(C)[C@@H](C(=O)N2CCCCC2)C[C@H](CC(=O)NC(C)(C)C)C(=O)N1CC3	·	-1.3	-3.5	0.641	·	3.7	0.2%
CC1CCN(CCCNC(=O)C2CCN(S(=O)(=O)N3CCC4(CC3)OCCO4)CC2)CC1	0.2	1.2	9.4	0.659	1.5	3.5	·
CC1CCN(C(=O)c2ccc(-n3cnnn3)cc2)CC1	-0.2	2.1	8.9	0.716	-0.9	0.4	-2.2%
Cc1ccc(S(=O)(=O)N2CCOCC2)cc1NC(=O)COc1cccc(-n2cnnn2)c1	-0.1	3.4	7.3	0.705	9.7	-3.6	-6.3%
COCCCn1c(=O)/c(=C\c2ccc(OC(F)F)c(OC)c2)s/c1=C(/C#N)C(N)=O	-0.4	·	3.8	·	29.2*	51.1*	-10.4%
COC(=O)c1ccccc1NC(=S)NC(=O)c1ccc(C)cc1	-0.6	-2.8	2.5	0.721	-1.0	0.8	-0.4%
COc1ccc(NC(=S)N(CCCN2CCOCC2)C(C)c2cc3cccc(OC)c3o2)cc1 (stereo unspecified)	0.0	·	1.9	·	-2.3	3.7	-4.1%
O=C(CSc1ccc2nnc(-c3ccccc3)n2n1)NCc1ccco1	-0.6	-4.0	-8.3	0.649	-4.3	-3.6	-4.0%
COc1ccc(OCC(=O)Nc2ccc(C)c(S(=O)(=O)N(C)C)c2)cc1	-0.8	0.6	-5.9	0.682	-8.4	3.0	·
O=C(CC1Sc2ccccc2NC1=O)NNc1ccc(Cl)cc1Cl (stereo unspecified)	·	1.3	0.8	0.644	·	0.8	3.7%
O=C(O)CCC(NS(=O)(=O)c1ccc(-c2ccccc2)cc1)C(=O)O (stereo unspecified)	0.2	1.7	2.5	0.688	0.5	-0.8	31.2%
COCC(=O)N(Cc1cc2cc(C)ccc2[nH]c1=O)c1ccc(C)c(C)c1	0.1	-9.1	2.1	0.654	0.3	-5.1	·
O=[N+]([O-])c1cccc(S(=O)(=O)c2ccc(N3CCCCC3)c([N+](=O)[O-])c2)c1	2.3	5.2	-12.2	0.679	-1.7	0.8	·
C#CCSc1nnc(-c2c[nH]c3ccccc23)n1C	0.3	8.1	10.4	0.702	5.2	-0.1	3.8%
CC(=O)Nc1ccc(NC(=O)C(C)OC(=O)c2ccc(S(=O)(=O)N3CCCCC3)cc2)cc1 (stereo unspecified)	1.1	1.8	3.4	0.682	0.1	0.6	-12.6%
Cn1c(=O)n(C)c2cc(NC(=O)COc3ccc(F)cc3)ccc21	-0.8	0.3	6.2	0.66	0.5	5.1	·
CC1=C(C)/C(=N/OC(=O)c2cccc([N+](=O)[O-])c2)C=CC1=O	-0.9	·	-4.9	·	0.2	0.4	-2.4%
CN(C(=O)c1ccc(C#N)cc1)c1nnc(-c2ccccn2)s1	·	-2.0	-6.6	0.704	·	-1.7	-7.4%
CCOc1ccccc1OCC(=O)Nc1cc2c(cc1C(=O)O)OCCCO2	0.9	·	0.4	·	-2.2	0.1	-6.7%
CC1=NN(S(=O)(=O)c2ccc(C)cc2)C(=O)c2ccccc2O1	1.0	-0.4	-0.3	0.695	-5.2	-3.5	17.1%
CCCCNC(=O)C1CCC(CNS(=O)(=O)c2c(C)cc(C)cc2C)CC1 (stereo unspecified)	0.1	2.2	-4.1	0.698	4.9	2.9	-4.1%
Cc1ccc(Sc2nnc(Cc3ccccc3)c3ccccc23)cc1	0.2	4.1	-3.7	0.707	2.2	2.2	0.1%
